# Prx2 Sm inh – blocks S. mansoni peroxiredoxin 2 enzymatic activity; 65,000 tested, 0.07% active; S. mansoni Prx2 activity coupled to TGR/GSH (TGR is thioredoxin glutathione reductase), NADPH fluorescence loss, qHTS; some inactives read as strong as hits; Potency, µM; active means full or partial inhibition curve with a strong effect at the top dose; inconclusive means weaker partial or single-point curve; inactive means no accepted curve; also: series up to 57 µM; many of its hits are not listed in these tables
#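 Prx2 activity was followed as the loss of NADPH fluorescence (ex 365/em 450 nm), read every 30 sec for 8 min after H2O2 start. The enzyme mix (50 nM Prx2, 25 nM TGR, GSH, NADPH; pH 7.4 phosphate buffer) was incubated with compound for 15 min at room temperature first.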
# LT uptake inh – inhibitors of anthrax lethal toxin internalization | Cells, anthrax lethal toxin internalization, FRET ratio (460/530) | Potency, µM (top dose mostly 40 µM), inactives show top-dose activity change, negative = inhibition, actives largely listed as inhibitors | 70,000 tested, 0.67% active | AID 912; active = well fitted falling ratio curve with the 530 nm signal flat; inconclusive = other ratio curves, or a change in one channel alone; inactive = flat curves in the ratio and both channels; the % refers to the ratio; also: % is scaled to controls: 0 for no effect and ±100 for the full control effect; nearly all actives have a fitted effect of over 50% in size; tested in ME-180 cells; beta-lactamase reporter
# * = called active by the depositor; ? = inconclusive; . = not tested or not shown; & = joins results of further samples; [ ] = remark or other dose. Potency is read from the fitted curve at half-maximal effect. This is a subset, so the mix of outcomes need not match the whole.
SMILES,Prx2 Sm inh,LT uptake inh
N#Cc1ccccc1Cn1cc(C(=O)c2ccco2)c2ccccc21,>57,-6.1%
O=C(Cn1nnc(-c2ccccc2F)n1)Nc1ccc(C(=O)N2CCOCC2)cc1,>57,-8.0%
CCOc1ccc(NC(=O)CS(=O)CC(=O)NC2CCCc3ccccc32)cc1 (centres undefined),>57,3.9%
COc1ccc(C(c2nnnn2C2CCCCC2)N2CCN(c3ccccc3F)CC2)cc1 (centres undefined),>57,-17.0%
COc1ccccc1NC(=O)CN1CCN(Cc2ccccc2)CC1,>57,6.2%
CC(=O)Nc1ccc(S(=O)(=O)Nc2nc3ccccc3nc2Sc2nncn2C)cc1,>57,-5.4%
O=C(O)c1cscc1Cc1cccs1,>57,?
CC(=O)Nc1ccc(S(=O)(=O)NCCc2csc(C)n2)cc1,>57,-6.0%
C=CCSc1nnc2c(n1)[nH]c1c(C)cccc12,.,-16.9%
Cc1ccccc1Nc1nnc(C)c(=O)[nH]1,>57,-2.7%
CC(C)CN1CCC2(CC1)CCN(C(=O)c1ccco1)CC2,>57,21.0%
COc1ccc(OCC(=O)Nc2cccc3cccnc23)cc1,>57,-13.0%
Cn1cccc1C(=O)N1CCC2(CC1)CN(C(=O)Nc1ccccc1)C2,>57,4.7%
CC(C)[N+](C)(CCC(C(N)=O)(c1ccccc1)c1ccccc1)C(C)C,>57,1.7%[3.58 µM]
CC[N+](C)(C)c1cccc(O)c1,>57&>57,-4.6%[3.58 µM]
N[C@@H](Cc1ccccc1)C(=O)O,>57,-3.9%[8 µM]
COc1ccc(-c2nc(CS(=O)CC(=O)NC3CCCc4ccccc43)c(C)o2)cc1OC (centres undefined),>57,-7.4%
C=C(C)Cn1c(SCC(=O)NCc2ccco2)nc2sc3c(c2c1=O)CCC3,>57,-10.4%
C=CCOC(=O)COc1ccc2c(C)c(CC)c(=O)oc2c1,>57,15.0%
COc1ccc(N2C(=O)C3CCCN3C2c2ccc(Cl)cc2)cc1 (centres undefined),.,18.3%
COCCn1nnnc1C(c1cc2cc(C)ccc2[nH]c1=O)N1CCCCCC1 (centres undefined),>57,-14.0%
COc1cccc(C(=O)NCC(=O)N2CCC(C)CC2)c1,>57,.
Cc1c(Nc2nc3ccccc3nc2NS(=O)(=O)c2ccccc2)c(=O)n(-c2ccccc2)n1C,>57,-4.4%
C/C(=N\O)c1ccc2c3c([nH]c2c1)CCCC3,.,10µM*
COc1ccc(CCNC(=O)CSc2nnc(CNC(=O)c3ccco3)o2)cc1OC,>57,8.6%
CCOC(=O)c1oc2c(C)c(O)ccc2c(=O)c1-c1nncn1-c1ccccc1,>57,3.6%
COc1ccc2c(c1O)-c1c(OC)c(OC)cc3c1[C@@H](C2)N(C)CC3,>57,3.8%
COC(=O)c1ccccc1NC(=O)CN1CCN(C23CC4CC(CC(C4)C2)C3)CC1,>57,12.8%
CN1C(=O)C(O)(CC(=O)c2ccc3c(c2)OCO3)c2ccccc21 (centres undefined),>57,-8.3%
CC(C)c1nc(N2CCOCC2)c(C#N)c2c1CCCC2,.,?
COc1cc2c(cc1OC)C(c1ccccc1)N(C(=O)c1ccco1)CC2 (centres undefined),>57,-5.2%
CC(C)(NO)/C(=N/O)c1ccc(Br)cc1,.,-9.6%
O=C(NCCCN1CCOCC1)c1cc2ccccc2oc1=O,>57,-1.0%
O=C(NC1CCCCCC1)C1C2C=CC3(CN(Cc4cccnc4)C(=O)C13)O2 (centres undefined),>57,3.6%
CCOC(=O)C1CCN(C(=O)c2sc3nc(-c4ccccc4)cn3c2C)CC1,>57,-8.2%
COc1cccc(/C=N/n2c(C)nc3ccccc3c2=O)c1O,>57,-6.8%
O=C(OC1CCOC1=O)c1ccc(S(=O)(=O)N2CCCCCC2)cc1 (centres undefined),>57,7.3%
Cn1c(=O)cc(SCC(=O)NCCCN2CCN(c3ccccc3F)CC2)c2ccccc21,>57,?
O=S(=O)(Cc1ccccc1)NCC1CCCO1 (centres undefined),.,-10.9%
CCOC(=O)C1=C(C)S/C(=C\N(C)C)C1=O,>57,-3.6%
COc1ccc(C)cc1NC(=O)C1CCCN1C(=O)OCc1ccccc1 (centres undefined),>57,1.0%
C[C@@H]1CC[C@@H]2N(C1)C[C@H]1[C@@](O)([C@H](O)C[C@]3(O)[C@H]4CC[C@H]5[C@]6(O)O[C@]4(C[C@]13O)[C@@]5(C)CC[C@@H]6O)[C@@]2(C)O,>57,2.7%[8 µM]
CN(CC(=O)NCc1ccco1)S(=O)(=O)c1cccc2cccnc12,>57,-7.3%
O=C(Nc1cccc(Cl)c1)N(CCCN1CCOCC1)Cc1ccccc1F,>57,-9.8%
Cc1ccc(C)c(N(C)S(=O)(=O)c2cccc3nsnc23)c1,>57,-19.3%
COC(=O)[C@@]1(Cc2ccc(F)cc2)[C@H]2c3cc(C(=O)N(C)C)n(Cc4ccc(C(F)(F)F)nc4)c3C[C@H]2CN1C(=O)c1ccccc1,>57,?
CCCOC(=O)CCNc1n[nH]c(=O)[nH]c1=O,.,8.4%
COc1ccc(-c2nnc(CSc3nnc(-c4ccncc4)n3C3CCCCC3)o2)cc1OC,>57,0.1%
Cc1cc(NC(=O)CN2CCC(O)(c3cccc(F)c3)CC2)no1,>57,16.7%
COc1ccc(-n2nc3ccccc3n2)cc1,>57,-7.8%
CCC(C)NC(=O)CSc1nnc(-c2ccc(C(C)(C)C)cc2)n1C (centres undefined),>57,-1.1%
Cn1c(=O)oc2cc(S(=O)(=O)NCCC(=O)N3CCc4ccccc43)ccc21,>57,2.5%
CCOC(=O)c1cccc(NC(=O)CNS(=O)(=O)c2cccs2)c1,>57,0.0%
CCN(CC)c1ccc(C2C(C(=O)OC)=C(C)NC(C)=C2C(=O)OC)cc1,>57,-12.6%
COCCn1c(=O)c(C)nc2cnc(Nc3cccc(OC)c3)nc21,>57,?
CCCn1c(CCC(=O)O)ccc1-c1ccc(OC)cc1,>57,.
CCn1c(SCC(=O)c2ccc(C)cc2)nnc1-c1ccoc1C,>57,-16.2%
CCCOc1ccc(/C(O)=C2\C(=O)C(=O)N(CCCN(C)C)C23C(=O)N(C)c2ccccc23)cc1 (centres undefined),>57,-6.6%
O=C(CCN1C(=O)C2CC=CCC2C1=O)N1CCN(c2ccccn2)CC1 (centres undefined),>57,-10.0%
Cc1ccc(S(=O)(=O)N(C)CC(=O)Nc2ccncc2)cc1,>57,5.6%

# Looked up above:
# CCN(CC)c1ccc(C2C(C(=O)OC)=C(C)NC(C)=C2C(=O)OC)cc1 in Prx2 Sm inh has >57
# C[C@@H]1CC[C@@H]2N(C1)C[C@H]1[C@@](O)([C@H](O)C[C@]3(O)[C@H]4CC[C@H]5[C@]6(O)O[C@]4(C[C@]13O)[C@@]5(C)CC[C@@H]6O)[C@@]2(C)O in Prx2 Sm inh has >57
# CCCOC(=O)CCNc1n[nH]c(=O)[nH]c1=O in LT uptake inh has 8.4%
# O=C(CCN1C(=O)C2CC=CCC2C1=O)N1CCN(c2ccccn2)CC1 (centres undefined) in LT uptake inh has -10.0%
# COC(=O)[C@@]1(Cc2ccc(F)cc2)[C@H]2c3cc(C(=O)N(C)C)n(Cc4ccc(C(F)(F)F)nc4)c3C[C@H]2CN1C(=O)c1ccccc1 in Prx2 Sm inh has >57

# Other structures
SMILES,Prx2 Sm inh,LT uptake inh
O=[N+]([O-])c1ccc(Cl)cc1Cl,.,1.5%
COc1cccc(CN2CCCC(C(=O)N3CCCCC3)C2)c1OC (centres undefined),>57,-11.7%
CCN1C(=O)Cc2cc(S(=O)(=O)N3CCOCC3)ccc21,>57,12.5%
COc1ccc(N2CCN(c3nc4ccccc4n3CC(=O)c3ccccc3)CC2)cc1,>57,1.3%
CCC1Oc2ccc(C)cc2N(CC(=O)NCCN2CCCCCC2)C1=O (centres undefined),>57,-8.6%
O=C(CCN1C(=O)C2C3C=CC(C3)C2C1=O)Nc1nccs1 (centres undefined),>57,-0.5%
Cc1cc(C)cc(OC(=O)N2CCOCC2)c1,>57,-5.7%
CCC(=O)c1ccccc1OCCSc1nc(C)cc(=O)[nH]1,>57,14.7%
Cn1c(=O)n(C)c2cc(NC(=O)c3cc4ccccc4o3)ccc21,>57,-0.6%
COc1ccc(C2C3=C(CC(C)(C)CC3=O)Oc3ncn4nc(-c5cccnc5)nc4c32)cc1OC (centres undefined),>57,6.1%
COc1ccc(S(=O)(=O)N2Cc3ccccc3CC2C(=O)Nc2ccc(O)cc2)cc1OC (centres undefined),>57,-5.6%
Cn1c(CNc2ccc(Cl)cc2)nc2ccccc21,>57,-22.6%
CC1(Cc2ccc3c(c2)OCO3)NC(=O)NC1=O (centres undefined),>57,-6.6%
O=C(CCC(=O)NC1CC1)Nc1nnc(C2CCCCC2)s1,>57,.
COC(=O)[C@H]1[C@@H]2C[C@H]3c4[nH]c5ccccc5c4CCN3C[C@@H]2CC[C@@H]1O,>57,-4.3%
Cc1c(Cl)c(S(N)(=O)=O)cc2c1=NC=NS=2(=O)O,>57,-8.8%[8 µM]
CCCN(CCC)S(=O)(=O)c1ccc(C(=O)Nc2nnc(CSC)o2)cc1,>57,20.8%
CCCCOc1ccc(C(=O)Nc2cccc(C)n2)cc1,>57,?
Cc1ccc(NC(=O)c2ccc(S(=O)(=O)N3CCCC3)cc2)cc1,>57,7.2%
O=C(NCC1CCCO1)c1cccc(N2C(=O)C3C4C=CC(C4)C3C2=O)c1 (centres undefined),>57,18.8%
CCn1c(=O)cc(SCC(=O)N2CCN(c3ccccn3)CC2)c2ccccc21,>57,0.2%
Cn1cccc1C(=O)N1CCC[C@@]2(CCN(C(c3ccccc3)c3ccccc3)C2)C1,>57,-4.7%
O=C(Nc1cccc(O)c1)C1CCCN1C(=O)OCc1ccccc1 (centres undefined),>57,2.1%
CCC(=O)N1CCN=C1SCc1ccccc1,>57,1.3%
CC1(C)CC(=O)c2cc(C(=O)N3CCN(CCO)CC3)c(=O)n(-c3ccc(Cl)cc3)c2C1,>57,-7.6%
O=C(NCCc1ccccc1F)[C@@H]1CSC2c3ccccc3C(=O)N21 (some centres undefined),>57,.
C[C@]1(OC(=O)/C=C\c2ccccc2)C[C@@H](O)[C@@]2(O)C=CO[C@@H](O[C@H]3O[C@@H](CO)[C@@H](O)[C@@H](O)[C@@H]3O)[C@H]21,>57,-0.6%[3.58 µM]
CC(C)Oc1ccccc1-c1nc(SCC(=O)O)n[nH]1,>57,1.0%
CCCOC(=O)C1[C@H]2C(=O)N(CCCOC)C[C@]23C=C[C@H]1O3 (some centres undefined),>57,.
Cc1nc2ccccc2c(=O)n1/N=C/c1cn(-c2ccccc2)nc1-c1cccs1,>57,-2.7%
O=C(NCc1ccco1)C1CN(S(=O)(=O)c2ccccc2)CCN1S(=O)(=O)c1ccccc1 (centres undefined),>57,-4.7%
COc1ccc(CCN2CC(C#N)=C3c4cc(OC)c(OC)cc4CCN3C2)cc1OC,>57,?
CCCCCCNC(=O)c1c(O)c2cccc3c2n(c1=O)CCC3,>57,-3.6%
O=C(CSc1nnc(Cc2cc(=O)[nH]c(=O)[nH]2)n1-c1ccc(F)cc1)N1CCCCC1,>57,-5.5%
CCN(CC)C(=O)CCC(=O)Nc1ccc(C(=O)OC)cc1,>57,-10.8%
CCOC(=O)c1ccc(Nc2c(CC)c(C)nc3ncnn23)cc1,>57,?
C1=CN2CCC1C(c1ccccc1)C2 (centres undefined),>57,?
CC1CC(C)CN(CCCNC(=O)CNC(=O)Cn2ccc3ccccc3c2=O)C1 (centres undefined),>57,-1.9%
Cc1cccc2cc(C#N)c(SCC(=O)N3CCC(C)CC3)nc12,>57,-2.4%
COC(=O)c1ccc(CCc2cc(O)ccc2O)cc1,>57,-27.6%[8 µM]
Cc1cc(Oc2ccc(-c3ccccc3)cc2)n2ncnc2n1,>57,-3.3%
Cc1cc2nc(-c3ccc(NC(=O)C(C)C)cc3)oc2cc1C,.,-7.3%
CCOC(=O)C1CCCN(Cc2nc(N)nc(Nc3ccc(Cl)cc3)n2)C1 (centres undefined),>57,15.7%
CCN1C(=O)CC(C(=O)Nc2ccc(F)cc2)SC1=Nc1cccc(OC)c1 (centres undefined),>57,-24.6%
CN1CCN(c2cc(=O)n(C3CCCCC3)c(=O)[nH]2)CC1,>57,-4.4%
Cc1ccc(SCc2cc(=O)n3[nH]cnc3n2)cc1,>57,9.4%
CC(=O)c1cccc(NC(=O)Nc2ccc3c(c2)N(C)C(=O)CS3)c1,>57,?
CCOC(=O)C1CCN(C(=O)C2CCCCC2)CC1,>57,.
O=C(CNC(=O)c1ccco1)NCC(=O)OCc1ccccc1Br,>57,?
CCOc1cc2c(cc1OCC)C(c1ccc(O)c(OC)c1)NCC2 (centres undefined),>57,15.1%
CCn1nc(NC(=O)c2ccccn2)c2cc3cccc(C)c3nc21,>57,.
CCn1c(SCC(=O)NC2CCCCC2)nc2c(c1=O)SC(C)C2 (centres undefined),>57,16.7%
COc1ccc(N(C(C)C(=O)NCc2ccco2)S(C)(=O)=O)cc1 (centres undefined),>57,-8.9%

# Exported tab-delimited: entries from further up
molecule	Prx2 Sm inh	LT uptake inh
Cc1cc2nc(-c3ccc(NC(=O)C(C)C)cc3)oc2cc1C	.	-7.3%
Cc1ccc(SCc2cc(=O)n3[nH]cnc3n2)cc1	>57	9.4%
CCOC(=O)C1CCCN(Cc2nc(N)nc(Nc3ccc(Cl)cc3)n2)C1 (centres undefined)	>57	15.7%
CCN1C(=O)CC(C(=O)Nc2ccc(F)cc2)SC1=Nc1cccc(OC)c1 (centres undefined)	>57	-24.6%
CCOC(=O)C1CCN(C(=O)C2CCCCC2)CC1	>57	.
CC(=O)c1cccc(NC(=O)Nc2ccc3c(c2)N(C)C(=O)CS3)c1	>57	?
